# Screening data as filed in PubChem.
# 2A Renilla: lowers the Renilla signal of an FMDV 2A StopGo reporter; HEK cells with a luciferase reporter of 2A StopGo recoding; AID 1745857; 120,000 tested, 0.32% active; Potency, µM (series often up to 57.5 µM), inactives show at the top dose signal change, negative = less light; active means well fitted falling curve with a large enough effect; inconclusive means small, poorly fitted or top-dose-only effect; inactive means no such curve, though single readings can be large or run the other way; note: nearly all actives have a fitted effect of over 55% in size; overnight with compound
# StopGo FLuc: FMDV 2A StopGo reporter, firefly signal | AID 1745856 | 120,000 tested, 0.23% active | Potency, µM (highest dose often 57.5 µM), without a hit: at the highest dose signal change, negative = less light | HEK cells with a luciferase reporter of 2A StopGo recoding; active = well fitted falling curve with a large enough effect; inconclusive = small, poorly fitted or top-dose-only effect; inactive = no such curve, though single readings can be large or run the other way; note: nearly all actives have a fitted effect of over 60% in size; overnight with compound
# Active calls of the source: *; u = inconclusive; & = joins results of further samples; [ ] = another dose, or the depositor's remark. % is set by controls: 0 for no effect and ±100 for the full control effect; potency is the fitted concentration of half-maximal effect. These rows are one share of the data, so the mix of outcomes need not match the whole.
SMILES,2A Renilla,StopGo FLuc
O=C(CCC1CCCCC1)NCCC12CC3CC(CC(C3)C1)C2,27%,144%[activator]
O=C(c1ccc(F)cc1Cl)N1CCN(c2cn[nH]c(=O)c2Cl)CC1,-7%,2%
C/C(CCc1ccc(OC(C)C)cc1)=N\O,8%,161%[activator]
CCCCN1C(=O)C2(SC(NC(C)=O)=NN2C(C)=O)c2ccccc21 (configuration not stated),0%,-9%
CCn1cc2nc(SCC(=O)Nc3ccc(OC)c(Cl)c3)n(Cc3ccc(OC)cc3)c(=O)c2n1,-12%,-7%
CN(C)c1ccc(C=Nc2ccc(O)cc2)cc1,-1%,0%
CC(c1nc2ccccc2s1)N(C)S(=O)(=O)/C=C/c1ccccc1 (configuration not stated),34%[activator],24%
CC(C)/C=C1\CCCC\C1=N/NC(N)=O,2%,3%
COc1ccc(-c2nc(CS(=O)CC(=O)NCc3ccccc3Cl)c(C)o2)cc1 (configuration not stated),79%[activator],20%
CCOC(=O)c1c(NC(=O)c2ccccc2Cl)sc2c1CCCC2,15%,-12%

# No new results follow: 6 of the compounds above.
SMILES,2A Renilla,StopGo FLuc
O=C(CCC1CCCCC1)NCCC12CC3CC(CC(C3)C1)C2,27%,144%[activator]
O=C(c1ccc(F)cc1Cl)N1CCN(c2cn[nH]c(=O)c2Cl)CC1,-7%,2%
C/C(CCc1ccc(OC(C)C)cc1)=N\O,8%,161%[activator]
CCCCN1C(=O)C2(SC(NC(C)=O)=NN2C(C)=O)c2ccccc21 (configuration not stated),0%,-9%
CCn1cc2nc(SCC(=O)Nc3ccc(OC)c(Cl)c3)n(Cc3ccc(OC)cc3)c(=O)c2n1,-12%,-7%
CN(C)c1ccc(C=Nc2ccc(O)cc2)cc1,-1%,0%

# Next section
SMILES,2A Renilla,StopGo FLuc
Cc1cccc(C(=O)N2CCc3cc(CNC(=O)c4ccco4)ccc32)c1,4%,-26%
Cc1nc2nc(SCC(=O)NCCc3ccc(Cl)cc3)nn2c(C)c1Cc1ccccc1,-29%,-22%
C#CCOc1c(Br)cc(C2C(C(=O)OC)=C(C)NC3=C2C(=O)c2ccccc23)cc1OCC (configuration not stated),3%,-10%
Cc1cc(NC(=O)[C@@H]2CCCN2S(=O)(=O)c2ccccc2)no1,-5%,-3%
CC(C)Nc1nnc(SCc2ncc(-c3ccccc3)o2)s1,-11%,4%
COc1ccc(C(=O)NC2CC2)cc1S(=O)(=O)N(C)C,2%,6%
CCOc1ccc(OCc2nc3ccccc3[nH]2)cc1,-19%,0%
COc1ccc(S(=O)(=O)NCCc2sc(-c3ccccc3)nc2C)cc1F,245%[activator],73%[activator]
CC(=O)c1cccc(S(=O)(=O)NCCc2csc3nc(-c4ccc(F)cc4)nn23)c1,16%&-2%,u
O=C(COC(=O)c1cc(Cl)ccc1[N+](=O)[O-])c1ccc(C2CCCCC2)cc1,-8%,-3%

# The last 3 entries of the part above come first, to join the parts:
SMILES,2A Renilla,StopGo FLuc
COc1ccc(S(=O)(=O)NCCc2sc(-c3ccccc3)nc2C)cc1F,245%[activator],73%[activator]
CC(=O)c1cccc(S(=O)(=O)NCCc2csc3nc(-c4ccc(F)cc4)nn23)c1,16%&-2%,u
O=C(COC(=O)c1cc(Cl)ccc1[N+](=O)[O-])c1ccc(C2CCCCC2)cc1,-8%,-3%
CCn1c(=O)c2sc(N3CCCC3)nc2n(CC(=O)Nc2cc(F)ccc2C)c1=O,8%,6%
CC1Cc2cc(S(=O)(=O)CCC(=O)Nc3ccc(F)cc3)ccc2N1C(=O)C1CC1 (configuration not stated),2%,-16%
COc1ccc(CC(=O)OCC(=O)Nc2ccc(OC(F)F)cc2)cc1OC,8%,27%
CCN(CC)C(=O)Cn1nc(-c2ccc(Cl)cc2)c2ccccc2c1=O,-8%,2%
CC(C(=O)NC1CCCC1)N1CCN(Cc2ccc(C(F)(F)F)cc2)CC1 (configuration not stated),-2%,-4%
Clc1ccccc1-c1noc(-c2ccc(Br)cc2)n1,7%,146%[activator]
C[C@@H]1NC(=O)[C@H]2C[C@@]3(c4ccccc4)c4ccccc4N[C@H]3N2C1=O,-2%,-8%
Cc1ccc2nc(Nc3ccc(C)c(F)c3)c3nncn3c2c1,-4%,-8%
COCCNc1oc(-c2ccc(S(=O)(=O)N3CCCCC3)cc2)nc1C#N,134%[activator],13%
Cc1ccc(NC(=O)Cn2c(=O)c3c(ncn3Cc3ccccc3)n(Cc3ccccc3)c2=O)c(F)c1,2%,7%
CCOc1ccc(-n2c(C)nc3cc(C(=O)NCc4ccc(F)cc4)ccc32)cc1,48%[activator],-5%
C/C(=N\NC(=O)c1cccc(Cl)c1)c1ccc(C)s1,0%,125%[activator]
COc1ccc(NC(=O)C2CCC(CNS(=O)(=O)c3cccc4nsnc34)CC2)cc1OC (configuration not stated),-4%,-1%
CCOC(=O)C1=C(CS(=O)(=O)c2ccc(F)c(C)c2)NC(=O)NC1c1ccc(F)c(F)c1 (configuration not stated),-3%,-14%
CCCNC(=O)CN1C(=O)COc2ccc(S(=O)(=O)N3CCCC3)cc21,-7%,-21%
CCOc1ccc(CCNC(=O)c2ccc(C)c(-n3cnc4cccnc43)c2)cc1,-4%,-12%
Cc1ccc2nc(-c3ccccc3)cc(C(=O)OCc3ccc(-c4ccccc4)cc3)c2c1,-2%,-5%
O=C(CSc1nc2ccccc2c2nc(=O)c(-c3ccccc3)nn12)NCc1ccc(F)cc1,6%,0%
COc1ccc2nc(SCC(=O)N3N=C(c4ccc(C)o4)CC3c3ccco3)[nH]c2c1 (configuration not stated),26%,0%
CC1=C(C(=O)OCc2ccccc2)C(c2cccc(Cl)c2Cl)CC(=O)N1 (configuration not stated),-5%,-6%
CCOC(=O)c1c(C)oc2ncn(Cc3nc(-c4cccnc4)no3)c(=O)c12,-6%,0%
COc1ccc(-c2nc(CSCC(=O)N3CCN(c4ccccc4F)CC3)c(C)o2)cc1,u,u
Cc1cccc(NC(=O)Nc2ccc(C)c(C)c2)n1,3%,189%[activator]
Cc1ccc2nc(/C(C#N)=C/c3cc(Br)ccc3OC(C)C)[nH]c2c1,5%,119%[activator]
COC(=O)c1cnc(N2CCN(c3ccccn3)CC2)c2ccccc12,u,u
O=C(Cn1c(=O)c2c(ncn2C2CCCC2)n(Cc2ccccc2)c1=O)N1CCCC1,38%,46%
CCc1nnc(NC(=O)C2CC(=O)N(c3ccc(Br)c(C)c3)C2)s1 (configuration not stated),-4%,4%
O=C(CSc1cn(CCNC(=O)c2c(F)cccc2F)c2ccccc12)Nc1ccc2c(c1)OCCO2,9%,9%
NC(=O)c1ccc(NC(=O)C2(Cc3nc4ccccc4s3)CCCCC2)cc1,33%[activator],34%[activator]
Cc1nn(-c2ccc(N3CCCC3)nn2)c(C)c1CCC(=O)Nc1ccc(F)cc1F,11%,8%

# Sorted by SMILES length (ascending): some entries from above.
SMILES,2A Renilla,StopGo FLuc
CCc1nnc(NC(=O)C2CC(=O)N(c3ccc(Br)c(C)c3)C2)s1 (configuration not stated),-4%,4%
NC(=O)c1ccc(NC(=O)C2(Cc3nc4ccccc4s3)CCCCC2)cc1,33%[activator],34%[activator]
COc1ccc(-c2nc(CSCC(=O)N3CCN(c4ccccc4F)CC3)c(C)o2)cc1,u,u

# Other compounds
SMILES,2A Renilla,StopGo FLuc
CCOc1ccc(C(=O)OCc2cc(=O)n3cc(C)sc3n2)cc1,-9%,-10%
CC(=O)c1sc(-c2cccc(F)c2)nc1C,8%,67%[activator]
CC(=O)c1ccc(NC(=O)c2ccc(-c3nc(CSc4ccccc4)c(C)o3)cc2)cc1,-7%,0%
CCS(=O)(=O)c1oc(-c2ccc(F)cc2)nc1S(=O)(=O)c1ccc(Br)cc1,u,u
COc1ccc(OC)c(NC(=O)CN(c2cccc(C)c2C)S(C)(=O)=O)c1,-4%,-4%
C=C(C)COc1ccc2c(C)c(CCC(=O)Nc3nccs3)c(=O)oc2c1,4%,60%[activator]
CCCn1nc(C(=O)Nc2nccs2)c2ccccc2c1=O,12%,20%
COCCCNC(=O)CN(C)C(=O)c1ccc(C(=O)OC)cc1,-6%,5%
COC(=O)CCc1sc(Nc2ccc(F)c(F)c2F)nc1-c1ccc(OC)cc1,8%,0%
CC(C)C[C@@H](NC(=O)OC(C)(C)C)C(=O)O,68%[activator],69%[activator]
CC1CC(C)CN(C(=O)C(C)Cl)C1 (configuration not stated),-2%,11%
CN(C(=O)COC(=O)c1cncc(Br)c1)C1CCCCC1,3%,23%
Cc1ccc(S(=O)(=O)N2CCCN(C(=O)C3CC(=O)Nc4cc(F)ccc43)CC2)cc1 (configuration not stated),-6%,-3%
CC(=O)Nc1cc(C(=O)NCc2ccc(C)cc2)ccc1S(=O)(=O)c1ccc(Cl)cc1,1%,-13%
COC(=O)c1ccccc1NC(=O)CN(c1ccc(OC)cc1OC)S(C)(=O)=O,16%,-1%
Cc1cc(OCC(=O)Nc2nc3ccccc3[nH]2)c2c(C)cc(=O)oc2c1,5%,2%
CN(C)c1ncc(C(=O)NCc2ccc(Cl)cc2)cn1,28%,-1%
O=[N+]([O-])c1ccccc1/C=N/NS(=O)(=O)c1ccccc1,9%,-10%
C=CCNc1nc(C(=O)OCC(=O)N(Cc2ccccc2)C(C)C)cs1,0%,7%
CCCCn1nc(C(=O)N2CCN(c3ccccc3)CC2)c2ccccc2c1=O,47%[activator],-4%
CCc1ccccc1NC(=O)N1CCOc2ccccc21,-16%,0%
Cc1c(C(=O)Nc2ccc(S(=O)(=O)N(C)C)cc2)oc2c(Cl)cccc12,-14%,-16%
CN(CCOc1ccc(Cl)cc1)Cc1cc(=O)oc2cc(O)c(Cl)cc12,16%,25%
O=C(NCCc1ccccc1)C(=O)NCC(c1cccnc1)N1CCN(c2ccccc2)CC1 (configuration not stated),u,u
Cc1c(C(=O)Nc2cc(F)ccc2F)sc2nc(-c3ccccc3)cn12,6%,20%
CCCC(=O)Oc1ccc2c(=O)c(Oc3ccccc3Br)c(C(F)(F)F)oc2c1,u,u
Cc1ccc(OCC(=O)Nc2ccc(S(=O)(=O)Nc3nccs3)cc2)cc1,18%,24%
CCC(=O)NCc1cc(-c2nn(C)c(=O)c3ccccc23)ccc1OC,5%,-2%
CCCC(=O)Oc1ccc2c(=O)c(Oc3cc(C)cc(C)c3)c(C(F)(F)F)oc2c1,u,u
CCCC(C)NC(=O)CN(c1cccc(OC)c1)S(C)(=O)=O (configuration not stated),-16%,-18%
Cc1cccc(-c2nc(N3CCN(c4ccc(F)cc4)CC3)c3ccccc3n2)c1,-14%,-19%
Nc1nccnc1C(=O)NCCc1ccc(F)cc1,9%,62%[activator]
COc1cccc2c1OC1(CCN(C(C)=O)CC1)N1N=C(c3ccccc3)CC21 (configuration not stated),7%,189%[activator]
O=S(=O)(Nc1nc2ccccc2nc1N1CCCCCC1)c1ccc2c(c1)OCCO2,106%[activator],9%
CN[C@H]1C[C@H]2c3cc(-c4ccccc4C)ccc3CCN2C[C@H]1[C@H](C)O,-20%,1%
NC(=O)c1cc(S(=O)(=O)N2CCN(c3cccc(C(F)(F)F)c3)CC2)cs1,-9%,-22%
Cc1noc(Cn2cc(S(=O)(=O)N(C)C)ccc2=O)n1,3%,12%
Fc1ccc(Oc2ncnc3c2oc2ccccc23)cc1,23%,230%[activator]
CC(C)(C)C(=O)Nc1ccc(-c2csc(N)n2)cc1,-10%,97%[activator]
Cn1nc(C(=O)Nc2cccc3cnccc23)c2ccccc2c1=O,16%,21%
CCOc1ccc(-c2noc(CSc3nnc(-c4ccccc4)n3-c3ccccc3)n2)cc1,-8%,-19%
O=C(NCc1ccccc1S(=O)(=O)N1CCOCC1)c1ccc(OC(F)F)cc1,58%[activator],4%
COc1ccc(C)cc1NC(=O)CCNS(=O)(=O)c1cccc2nonc12,6%,-19%
CCCn1c(-c2ccccc2)nc2c(=O)n(C)c(=O)[nH]c21,16%,31%
Nc1ccc(-c2cc(C(=O)O)c3cc(Cl)ccc3n2)cc1,38%[activator],0%
Cn1c(SCc2ccccc2Cl)nc2c([nH]c3ccccc32)c1=O,-3%,-13%
c1ccc(-c2noc(-c3cccnc3NCc3ccco3)n2)cc1,7%,184%[activator]
CC(=O)N1c2ccccc2C(=O)C1N1CCN(c2ccccc2F)CC1 (configuration not stated),-8%,-14%
O=C(Nc1cccc2c1CCCC2)N1CCOc2ccc(Cl)cc21,-9%,-16%
Cc1cc2oc(=O)cc(CSc3nnnn3C3CC3)c2cc1C(C)C,4%,-3%
# The listing continues.
SMILES,2A Renilla,StopGo FLuc
O=S1(=O)C[C@H](N2CCN(c3ncccn3)CC2)[C@@H](S(=O)(=O)c2ccc(F)cc2)C1,-1%,19%
Cn1ncc2c(N3CCN(c4ccccc4Cl)CC3)ncnc21,u,u
CC(=O)c1nn(-c2ccc(OC(F)(F)F)cc2)nc1Nc1ccc(C)cc1,-13%,6%
O=C(Nc1ccccc1C(F)(F)F)c1cc2ccccn2n1,25%&3%,145%&183%[activator]
COC(=O)c1cc2occc2n1Cc1ccc(F)cc1Cl,4%,5%
COc1ccccc1CNC(=O)Cc1c(C)c2c(cc(C)c3c(C)coc32)oc1=O,-12%,-12%
CCc1sc(C(=O)N2CCC3(CC2)OCCO3)cc1Br,19%,23%
Cc1nn(C)c(=O)c(-c2nc(-c3ccc(N(C)S(C)(=O)=O)cc3)cs2)c1C,-5%,0%
O=C(NC1CCCC1)c1c[nH]c2ccc(S(=O)(=O)Nc3cccc(C(F)(F)F)c3)cc2c1=O,119%[activator],8%
CCOc1cc2cc(C(=O)c3ccccc3O)cnc2cc1OCC,5%,26%
Cc1ccc2nc(CN3CCN(S(=O)(=O)c4ccccc4)CC3)oc2c1,-12%,5%
COCCNC(=O)COC(=O)c1cc(-c2ccc(-c3ccccc3)cc2)nc2ccccc12,u,48%[activator]
Cc1ccc(Nc2c(-c3ccc(N4CCOCC4)cc3)nc3cccc(C)n23)cc1,-1%,44%[activator]
CCOC(=O)c1cc(-c2ccc(F)cc2)n(CCC(=O)NC2CCC(C)CC2)c1C (configuration not stated),-6%,-16%
